Bead autofluor = compound fluorescence in toxin protease inhibitor counterscreen; compound autofluorescence counterscreen, microsphere flow cytometry; stronger effect = higher value; fluorescence intensity (no concentration beside the values); 360,000 tested, 3.1% active; AID 624483;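 active = at least 3 SD above the mean of all compounds, about 16000 in these data; inconclusive = too few beads counted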;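 note: 100 nL of 1 mM stock went into each well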
PrP UTR inh = suppresses PrP 5' UTR mRNA reporter expression; 340,000 tested, 0.35% active; inhibition, % (test concentration not listed); cell-based PrP 5' UTR mRNA reporter, plate reader;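 active = every replicate at 50% or more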;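 note: 0 = median of the neutral control wells; tested in H4 reporter cells; numbers are from one replicate; inactives centre near -14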
Mtb hypoxia inh = reduces hypoxia-regulated biosensor signal in M. tuberculosis. 300,000 tested, 0.1% active. fluorescence inhibition, % (test concentration not listed). M. tuberculosis hypoxia-regulated fluorescent reporter, fluorescence;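 active = 35 to 45% if threefold the growth effect, above 45% if 1.5-fold the growth effect; inactive = the rest, general growth blockers included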;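 note: wells of about 50 µL received 100 nL stock; 0% = vehicle wells and 100% = reference inhibitor wells; whole bacteria with a GFP reporter of the hypoxia response; strong numbers were not always called active; many hits fall short of the cut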
Sa ugtP lethal = growth inhibition of S. aureus ugtP deletion strain; S. aureus RN4220 ugtP deletion, OD600 growth, 16 h; some inactives read as strong as hits; growth inhibition, % (no concentration beside the values); 330,000 tested, 0.54% active; AID 1259309;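 active = z-score under -3 and OD600 up to 0.15 on both plates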;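 note: plate controls were untreated wells for no effect and antibiotic for full effect; wells of about 80 µL received 100 nL stock; the first replicate is given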
BJeLR viability = BJeLR cell viability loss; AID 1554; 300,000 tested, 0.17% active; BJeLR (HRASV12) viability, CellTiter-Glo ATP luminescence, 48 h; reference of the scale not given here; inhibition, % (concentration not given with the values);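 active = replicate mean above 50%; inconclusive = above 50% but judged a plate artefact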;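 note: 50 nL library stock added to about 25 µL; numbers are from one replicate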
RN4220 kill = kills Staphylococcus aureus RN4220; S. aureus RN4220 growth, OD600, 16 h; 330,000 tested, 0.33% active; inhibition, % (test concentration not listed); AID 1259311;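 active = z-score of -3 or lower and OD600 up to 0.18 on both plates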;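 note: plate controls were untreated cells for no effect and reference antibiotic for full effect; stock transfer was 100 nL into about 80 µL; one replicate is shown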
Mtb hypoxia inh growth = recorded beside Mtb hypoxia inh, whose call it bears; growth inhibition, %; measured here: M. tuberculosis growth (absorbance);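 0% = vehicle and 100% = reference antibiotic; read after six days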
Active calls of the source: *; ? = inconclusive; · = no result given.

SMILES	Bead autofluor	PrP UTR inh	Mtb hypoxia inh	Mtb hypoxia inh growth	Sa ugtP lethal	BJeLR viability	RN4220 kill
CCCCOC(=O)Nc1nnc(SCCOc2ccc(C)cc2)s1	6736	-3	6	6	-5	10	4.8
Cc1c(CN2CCN(CC(C)C)C(CCO)C2)[nH]c2ccc(Cl)cc12 (stereo not drawn)	4035	-2	2	12	-2	1	-1.2
CN(C)CCNC(=O)C(=O)c1c(-c2ccccc2)cc2ccccn12	4577	-20	17	3	11	4	7.8
CSCCC(NC(=O)COc1ccccc1)C(=O)N1CCN(C(C)=O)CC1 (stereo not drawn)	6651	-10	3	7	0	10	0.8
c1ccc(Cn2nnnc2C(c2cccs2)N2CCc3ccccc3C2)cc1 (stereo not drawn)	8260	-17	1	-15	-6	1	2.6
CN(Cc1ccc(F)cc1)Cc1nc(-c2cnccn2)no1	4888	-9	4	2	-3	-5	-1.3
C#CCNC(=O)C1=C[C@@H](c2ccc3c(c2)OCO3)C[C@@H](OCCCCO)O1	3779	1	·	·	·	3	·
NS(=O)(=O)c1ccc(SCc2ccccc2)nc1	6245	-19	3	-1	-3	-6	0.4
CCOC(=O)C(C)N1C(=O)S/C(=C/c2cc(C)n(-c3ccncc3)c2C)C1=O (stereo not drawn)	2424	-19	2	10	4	-1	-1.6
Cc1ccccc1OCC(=O)OC(C)CN1CCN(C)CC1 (stereo not drawn)	3716	-41	8	3	11	-8	3.9
[O-]/C(=C(\C(=S)Nc1cccc2ccccc12)[n+]1ccccc1)c1ccc2c(c1)OCCO2	5223	-19	-4	-10	6	0	6.2
COc1ccc(C(=O)N/C(=C\c2cccc([N+](=O)[O-])c2)C(=O)Nc2cccc(C(=O)O)c2)cc1	4810	-30	3	-7	13	-5	3.3
Fc1ccc(COc2ccc3ccccc3c2CNc2nn[nH]n2)cc1	3368	-17	·	·	·	6	·
CCC(C)[C@H]1CN=C(N)N1CCc1cccc2ccccc12 (stereo partly drawn)	4033	-6	·	·	·	3	·
CC(C)(C)OC(=O)NCc1ccc(CNC(=O)c2nc[nH]c2C(=O)N2CCN(C(=O)OC(C)(C)C)CC2)cc1	4072	-20	12	3	-1	·	4.7
Cc1ccc(N(CC(=O)N2CCCC2)S(C)(=O)=O)c(C)c1	3600	-23	-2	-5	9	-3	2.5
CC1(C)CC(=O)C(C=NCc2cccnc2)=C(O)C1	4076	-10	12	7	2	-2	4.3
O=C1Nc2ccccc2C(=O)N2C1C1C(=O)N(Cc3ccccc3)C(=O)C1C2c1ccccc1 (stereo not drawn)	·	·	0	4	6	·	6.2
O=C(/C=C/c1ccncc1)c1ccc2c(c1)OCCO2	3633	-23	2	2	2	5	19
O=C(c1ccccc1)N1CCC(CC2CC(c3cccc(Br)c3)=NO2)(C(=O)NCC2CCCCC2)CC1 (stereo not drawn)	4008	-19	·	·	·	-9	·
CN(Cc1ccccc1)C(=O)COC(=O)/C=C/c1ccco1	4557	-9	1	9	5	4	6.8
Cc1cccc(C(=O)Oc2ccc(C=NNC(=O)c3cc(O)cc(O)c3)cc2)c1	·	·	2	10	6	·	-2.3
Cc1cccc(/C=N/NC(=O)c2c(-c3ccccc3)noc2C)c1O	6040	-1	·	·	·	6	·
Nc1nc(O)c(CC(=O)O)s1	3886	-11	·	·	·	-3	·
COc1ccc(CN2CCNC(=O)C2CC(=O)NCc2cn3ccc(C)cc3n2)c(OC)c1 (stereo not drawn)	1970	-1	10	-3	9	7	2.2
CC#CC(=O)NCC1(N(C)Cc2ccccc2)Cc2ccccc2C1	3257	-17	-7	0	9	-10	4.1
CN(C)C(=S)N=Nc1[nH]c2ccccc2c1O	·	·	5	4	5	23	7.1
CCSc1nnc2ccc(-c3ccc(C)cc3)nn12	5426	-14	6	1	2	-2	4.7
COc1cccc(C=NNc2nc(Nc3ccc([N+](=O)[O-])cc3)nc(N3CCCC3)n2)c1O	·	·	-12	-8	-24	·	1.8
CC[C@@]12C(=O)N(c3ccccc3)C(=O)N1[C@H](c1ccc(OC)cc1)[C@@H]1C(=O)N(C(C)(C)C)C(=O)[C@@H]12	3665	-29	·	·	·	2	·
O=C(CSc1ccc2nnc(-c3ccccn3)n2n1)Nc1nccs1	4289	-20	4	8	10	1	0.2
O=C(Nc1ccn(Cc2c(F)c(F)cc(F)c2F)n1)c1ccc(COc2ccc(Cl)cc2Cl)o1	12006	-40	5	14	-34	2	-0.6
COCCCN=C1NN=C(c2cc(C)n(-c3ccccc3)c2C)CS1	2199	-6	2	4	2	-15	7.1
CCOC(=O)C(CCCOc1cccc(OC)c1)C(=O)OCC	7507	·	6	0	14	13	1.7
Cn1c(SCC(=O)NCc2ccc3c(c2)OCO3)nc2scc(-c3cccs3)c2c1=O	3351	-5	2	0	4	-8	-5.7
COc1ccc(Cn2c(S(=O)(=O)CC(N)=O)nc3ccccc32)cc1[N+](=O)[O-]	·	·	16	15	-1	-6	2.2
O=[N+]([O-])c1ccc(NN=C/C=C/c2ccco2)cc1	·	·	14	11	-21	·	-2.4
Cc1cccc(N(Cc2cc3ccccc3[nH]c2=O)S(C)(=O)=O)c1	4703	-15	-6	-10	1	-5	2.2
CCOC(=O)C1CCN(S(=O)(=O)Cc2ccccc2)CC1	8197	-23	-3	-6	6	-2	2.7
CN(C)CCCNC(=O)C(=O)NCC1OCCN1S(=O)(=O)c1cccs1 (stereo not drawn)	6075	-13	7	-1	6	2	1.3
CCCCCCc1ccc(N2C[C@H](CCCCC)[C@@H](CC(=O)NCc3ccc(OC)cc3)C2=O)cc1	3623	-7	·	·	·	0	·
COc1ccc(NC(=O)CSCC(=O)Nc2cc(Cl)ccc2N2CCCC2)cc1	?	6	-1	-6	-2	1	2.1
Cc1ccccc1NC(=O)c1ccc2c(c1)C(=O)N(CCC(C)C)C2=O	4342	1	·	·	0	2	-2.2
O=c1cc(O)c2c(=O)n(C3CCCCC3)c3ccccc3c2o1	22987*	1	3	8	8	4	2.5
CCOC(=O)C1CCN(C(=O)c2sc3nc(C)nc(N4CCC(C)CC4)c3c2C)CC1	21764*	-17	0	12	-15	-20	-3.0
CCC(C)NC(=O)C1(O)c2cc(Br)ccc2NC(=O)N1c1cccc(OC)c1 (stereo not drawn)	2982	-13	2	4	2	-9	1.1
O=C(NCCc1ccccn1)c1cccnc1Oc1ccc(Cl)cc1	5565	-11	0	1	2	-4	3.3
COC(=O)c1cccc(S(=O)(=O)N2CCC(C)CC2)c1	3308	-1	9	-5	10	-7	2.2
COc1cc(OC)cc(-c2ncc3ccccn23)c1	4252	3	2	11	-15	-5	1.2
N/C(=N\OC(=O)c1ccccc1)c1ccn[nH]1	6077	-64	1	3	7	1	1.8
Other compounds follow.
SMILES	Bead autofluor	PrP UTR inh	Mtb hypoxia inh	Mtb hypoxia inh growth	Sa ugtP lethal	BJeLR viability	RN4220 kill
Nc1ccc(Sc2ccc([N+](=O)[O-])cc2)cc1	2088	-13	5	6	-5	2	5.2
Cn1c(SCC(=O)NCC2CCCO2)nnc1-c1ccc(S(=O)(=O)N2CCCC2)cc1 (stereo not drawn)	9561	-5	5	2	3	5	0.8
NC(N)=Nc1ccc2[nH]c3c(c2c1)C[C@@]1(O)[C@H]2Cc4ccc(O)c5c4[C@@]1(CCN2CC1CC1)C3O5 (stereo partly drawn)	5702	-12	·	·	13	·	4.2
Cc1ccc(Nc2cc(C)c3c(O)cccc3n2)cc1C	4994	-55	-28	-7	-9	12	-38
Cc1ccc(NC(=O)COc2ccccc2CNC(C)(C)CC(C)(C)C)cc1	16482*	-15	2	9	-40	-9	6.6
COc1cc(/C=C2\SC(=O)NC2=O)ccc1Oc1ccc([N+](=O)[O-])cc1[N+](=O)[O-]	2175	-12	15	11	11	0	-6.8
O=C(CSCc1c(Cl)cccc1Cl)NCc1ccco1	3520	-21	13	19	5	-1	12
COc1ccc(NC(=O)C(NC(C)=O)C(=O)NCc2ccccc2Cl)cc1 (stereo not drawn)	2085	-52	·	·	-3	-1	0.6
O=c1cc(O)c(-c2ccc(Cl)cc2)c(Cl)[nH]1	6621	-28	-3	0	0	0	3.2
O=C1c2cc(F)ccc2OC2(CCNCC2)C12CC(c1ccccc1)=NO2 (stereo not drawn)	3045	-1	16	8	-2	-8	2.1
O=C(NN=C1CCCCCC1)c1c[nH]c2ccccc12	6956	4	1	-2	11	6	4.0
NS(=O)(=O)c1cccc(NC(=S)NCc2ccc3c(c2)OCO3)c1	3048	-49	0	8	16	·	1.8
CCCC/C(C)=N/NC(=O)NC1CCCCC1	2501	-11	·	·	·	6	·
CS(=O)(=O)N(CC(=O)Nc1ccccc1-c1ccccc1)c1cccc(F)c1	4805	-16	-8	3	-3	·	-4.5
Cc1cc(C)cc(NC(=O)CN2CCN(CCN=CC3=C(O)CC(c4ccc(Cl)cc4)CC3=O)CC2)c1 (stereo not drawn)	2362	-35	2	13	10	2	4.6
CC(=NNc1nc2c(s1)CCCC2)c1ccccc1	·	·	·	·	-7	·	0.9
O=C(NCCOCc1ccc(Cl)cc1)c1ncn[nH]1	6724	4	7	1	-4	14	3.7
Cc1ccc2nc(N3CCN(S(=O)(=O)c4ccc5c(c4)OCCO5)CC3)c(C#N)cc2c1	10472	-23	3	10	-1	18	1.1
Cc1ccc(NC(=O)c2ccccc2N(C)S(C)(=O)=O)cc1C	23559*	-21	5	3	3	-3	1.6
CCn1nc(C)c(C=NNC(=O)Cn2nccc2C)c1C	·	·	4	6	3	·	4.0
O=C(CN(Cc1ccccc1)C(=O)CNS(=O)(=O)c1ccc(Cl)cc1)NCC1CCCO1 (stereo not drawn)	4204	-16	13	6	1	-6	4.6
CN(CC(=O)Nc1cccc(C(F)(F)F)c1)C1=NS(=O)(=O)c2ccccc21	3882	-4	-6	-3	2	·	4.9
Cc1ccsc1C(=O)N1CCCC(N2CCN(c3cccc(Cl)c3)CC2)C1 (stereo not drawn)	5813	11	1	23	1	-2	0.1
N#C/C(=C\c1ccc(O)cc1)c1nc2ccccc2o1	4248	-34	8	-4	-2	-4	1.9
Cc1cc(C)c(C(=O)N(CCN(C)C)CC2CCCN(Cc3ccccc3F)C2)o1 (stereo not drawn)	10111	-4	2	7	14	-1	7.6
O=C(CN1C(=O)CSc2ccc(S(=O)(=O)N3CCOCC3)cc21)NCc1ccc(Cl)cc1	5678	5	4	-8	-9	-1	0.6
COc1ccc(OCCCC(=O)Nc2nc(C)c(C(C)=O)s2)cc1	4431	-15	8	-4	2	-1	-1.8
COc1ccc(S(=O)(=O)N2CCc3ccccc3C2)cc1C(=O)O	3430	-23	14	0	15	5	1.2
Cc1nc2cc(C(F)(F)F)ccc2n1C1CCN(CC(=O)N2CCCC2)CC1	4218	-18	13	10	8	-1	5.7
N#C/C(=C\c1cccc(O)c1)C(=O)Nc1ccc2c(c1)OCCO2	?	-4	6	-8	-2	-4	1.5
O=C(Nc1cccc(C(=O)O)c1)/C(=C\c1ccc2c(c1)OCO2)NC(=O)c1ccccc1	3407	-18	-3	3	14	4	5.5
CSCCC(NC(=O)CCC(=O)OC1CC[C@H]2[C@@H]3CC[C@H]4CC(=O)CC[C@]4(C)[C@H]3CC[C@]12C)C(=O)O (stereo partly drawn)	3054	·	-9	-2	13	8	7.6
COC(=O)C=C1CCC2C3CC(F)C4(O)CC(=O)CCC4(C)C3C(=O)CC12C (stereo not drawn)	3635	-25	3	11	2	·	1.7
CSc1nc2ccc(S(=O)(=O)NC3CCCCC3)cc2s1	·	-2	6	10	-18	-1	-10

Screening data from PubChem BioAssay.
